# High-throughput results (PubChem BioAssay)
# Vaccinia stage: Vaccinia orthopox stage-specific inhibition. Vaccinia-infected cells, mCherry/Venus stage reporter fluorescence; active compounds read low; some inactives read as strong as hits. activity change (mCherry), % (test concentration not listed). 89,000 compounds, 0.01% hits. AID 1053133;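 active means mCherry past -33% and 40 or more points under the early reporter, replicates agreeing; inconclusive means past -33% without that gap or agreement; tested in A549 cells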;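 further: scaled between vehicle wells and reference inhibitor wells; 23 nL library stock went into each well; one replicate is shown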
# Vaccinia stage Venus: recorded beside Vaccinia stage, whose call it bears; activity change (Venus), %; measured here: Venus reporter, other viral stage;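 negative = less Venus signal; first of two replicates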
# Starred values were filed as active, the others as inactive; ? = inconclusive; . = not tested or not shown.
SMILES,Vaccinia stage,Vaccinia stage Venus
COCC#Cc1cnc2c(c1)C(=O)N([C@H](C)CO)C[C@H](C)[C@H](CN(C)C(=O)c1ccc(F)cc1)O2,9.9,4.5
C[C@@H]1CN([C@H](C)CO)S(=O)(=O)c2ccc(-c3cccc(C#N)c3)cc2O[C@@H]1CN(C)Cc1cccc(F)c1,-22.7,-11.2
CC(C)NC(=O)N(C)C[C@H]1OCCCC[C@@H](C)Oc2ccc(NC(=O)c3ccccc3)cc2C(=O)N([C@@H](C)CO)C[C@H]1C,11.2,-2.5
CCC(=O)N1CC2(C1)CN(CC1CCCCC1)[C@H](CO)c1c2c2ccc(OC)cc2n1C,-2.6,0.2
COc1ccc(S(=O)(=O)N(C)C[C@H]2Oc3c(NC(=O)c4cnccn4)cccc3C(=O)N([C@H](C)CO)C[C@H]2C)cc1,6.0,5.9
Cc1ccc(S(=O)(=O)Nc2ccc3c(c2)CC(=O)N([C@@H](C)CO)C[C@@H](C)[C@@H](CN(C)C(=O)NC(C)C)O3)cc1,5.1,8.0
O=C(C[C@@H]1C[C@H]2c3cc(NC(=O)Nc4ccccc4F)ccc3O[C@H]2[C@@H](CO)O1)NCC1CC1,-4.3,-6.3
COc1ccccc1CNC(=O)C[C@H]1C=C[C@@H](NC(=O)CC2CC2)[C@@H](CO)O1,0.6,8.5
CNC[C@@H]1Oc2ccc(NC(=O)NC3CCCCC3)cc2C(=O)N([C@H](C)CO)C[C@H]1C,-22.3,-22.6
C[C@@H]1CCCCO[C@@H](CN(C)S(=O)(=O)c2ccc(F)cc2)[C@H](C)CN([C@@H](C)CO)C(=O)c2cc(NS(=O)(=O)c3cccs3)ccc2O1,?,.
Cc1noc(C)c1NC(=O)Nc1cccc2c1O[C@@H](CN(C)C(=O)Nc1c(C)noc1C)[C@@H](C)CN([C@@H](C)CO)C2=O,9.9,3.5
Cc1ccc(-c2ccc([C@@H]3[C@@H](CO)N4C(=O)CN(S(=O)(=O)c5cccc(F)c5)C[C@H]34)cc2)cc1,-22.6,-20.8
CC=Cc1ccc2n(c1=O)C[C@@H]1[C@@H](CO)[C@H](C(=O)N[C@H](C)c3ccccc3)N(C)[C@H]21 (mixture of isomers),7.7,9.0
CC(C)NC(=O)N(C)C[C@H]1Oc2ccc(NC(=O)CCCN(C)C)cc2C(=O)N([C@@H](C)CO)C[C@H]1C,25.3,16.9
O=C(c1cnccn1)N1CC(=O)N2[C@@H](CO)[C@H](c3ccc(C#CCc4ccccc4)cc3)[C@@H]2C1,47.1,10.7
CCNC(=O)[C@@H]1[C@@H](CO)[C@@H]2Cn3c(ccc(-c4ccc(OC)cc4)c3=O)[C@H]1N2CC,-2.2,4.7
COc1ccc(CN(C)C[C@H]2Oc3c(NC(=O)Nc4ccc(F)cc4)cccc3C(=O)N([C@@H](C)CO)C[C@H]2C)cc1,-12.2,0.3
O=C(Nc1ccc2c(c1)[C@H]1C[C@H](CC(=O)N3CCOCC3)O[C@@H](CO)[C@H]1O2)c1cccnc1,-0.9,-2.3
C/C=C/c1ccc2c(c1)O[C@@H](CN(C)C(=O)Cc1ccccn1)[C@H](C)CN([C@@H](C)CO)S2(=O)=O,22.1,13.7
O=C(O)C[C@@H]1C[C@@H]2c3cc(NC(=O)Cc4ccncc4)ccc3O[C@@H]2[C@H](CO)O1,13.5,11.1
CCC(=O)N1[C@@H]2c3ccc(-c4ccccc4)c(=O)n3C[C@H]1[C@H](CO)[C@H]2C(=O)N1CCN(C)CC1,5.9,12.9
C[C@@H]1CN([C@H](C)CO)C(=O)c2cc(N(C)C)ccc2O[C@H]1CN(C)C(=O)Nc1ccc2c(c1)OCO2,8.6,4.8
OC[C@@H]1[C@H](c2ccc(Br)cc2)[C@H]2CNCCCCN12,5.3,1.4
Cc1ccccc1S(=O)(=O)N1CCCCN2[C@H](C1)[C@H](c1ccc(-c3cncnc3)cc1)[C@@H]2CO,-4.9,-6.3
C[C@@H]1CN([C@H](C)CO)C(=O)c2cc(NC(=O)Nc3ccc(C(F)(F)F)cc3)ccc2O[C@H]1CN(C)S(=O)(=O)c1ccc(F)cc1,-9.7,0.6
COc1ccc(S(=O)(=O)N(C)C[C@H]2OCCCC[C@H](C)Oc3ccc(NS(=O)(=O)c4ccc(C)cc4)cc3C(=O)N([C@H](C)CO)C[C@H]2C)cc1,-20.0,0.1
C[C@H](CO)N1C[C@H](C)[C@@H](CN(C)C(=O)CN2CCOCC2)Oc2ncc(C3=CCCC3)cc2C1=O,33.7,14.6
C[C@@H]1CN([C@@H](C)CO)C(=O)Cc2cc(NC(=O)c3ccncc3)ccc2O[C@H]1CN(C)C(=O)Nc1ccccc1,30.5,13.9
CO[C@H]1CN(C)C(=O)c2cc(NC(=O)c3cccc(F)c3)ccc2OC[C@@H](C)N(CC2CC2)C[C@@H]1C,-11.1,-9.9
CO[C@H]1CN(C)C(=O)c2ccc(NC(=O)c3ccccc3)cc2OC[C@H](C)N(C(C)=O)C[C@H]1C,-5.0,-1.2
O=C(Cc1ccccn1)N1CCCCN2[C@H](CO)[C@H](c3ccc(-c4ccccc4)cc3)[C@@H]2C1,-5.4,-10.3
N#Cc1cccc(-c2ccc([C@@H]3[C@H]4CN(C(=O)Nc5ccccc5)CCCCN4[C@H]3CO)cc2)c1,-7.4,-17.4
CC(C)NC(=O)Nc1ccc2c(c1)C(=O)N([C@H](C)CO)C[C@@H](C)[C@@H](CN(C)CC1CCCCC1)O2,-9.9,-10.5
CN1C(=O)c2cc(NC(=O)c3cccc(F)c3)ccc2OC[C@@H]2O[C@@H](CC(=O)NCc3ccccc3Cl)CC[C@H]21,?,.
C[C@@H]1CN([C@@H](C)CO)C(=O)CCCn2cc(nn2)CO[C@@H]1CN(C)S(=O)(=O)c1ccc(-c2ccccc2)cc1,-29.5,-19.4
CC(C)NC(=O)N1C[C@H]2[C@@H](c3ccccc31)[C@@H](CO)N2C(=O)Nc1ccc(F)cc1,2.3,6.5
CC(C)NC(=O)Nc1ccc2c(c1)C(=O)N([C@@H](C)CO)C[C@H](C)[C@H](CN(C)C(=O)c1ccccc1)OCCCC[C@@H](C)O2,10.7,7.0
C[C@H](CO)N1C[C@H](C)[C@H](CN(C)S(=O)(=O)c2cn(C)cn2)Oc2ncc(C#Cc3cccc(F)c3)cc2C1=O,13.6,13.7
C[C@@H]1CN([C@H](C)CO)C(=O)c2cccc(NC(=O)C3CC3)c2O[C@H]1CN(C)S(=O)(=O)c1ccccc1,7.4,7.5
CO[C@H](CN(C)C(=O)c1cc(Cl)cc(Cl)c1)[C@@H](C)CN(C(=O)Nc1ccc(F)cc1)[C@H](C)CO,2.2,2.5

# Five entries from above, ordered by SMILES length, low to high:
SMILES,Vaccinia stage,Vaccinia stage Venus
CO[C@H]1CN(C)C(=O)c2ccc(NC(=O)c3ccccc3)cc2OC[C@H](C)N(C(C)=O)C[C@H]1C,-5.0,-1.2
CC(C)NC(=O)Nc1ccc2c(c1)C(=O)N([C@H](C)CO)C[C@@H](C)[C@@H](CN(C)CC1CCCCC1)O2,-9.9,-10.5
C[C@@H]1CN([C@@H](C)CO)C(=O)Cc2cc(NC(=O)c3ccncc3)ccc2O[C@H]1CN(C)C(=O)Nc1ccccc1,30.5,13.9
CN1C(=O)c2cc(NC(=O)c3cccc(F)c3)ccc2OC[C@@H]2O[C@@H](CC(=O)NCc3ccccc3Cl)CC[C@H]21,?,.
C[C@H](CO)N1C[C@H](C)[C@H](CN(C)S(=O)(=O)c2cn(C)cn2)Oc2ncc(C#Cc3cccc(F)c3)cc2C1=O,13.6,13.7

# Next section:
SMILES,Vaccinia stage,Vaccinia stage Venus
Cc1ccccc1S(=O)(=O)N1C[C@@H](O)COC[C@H]2O[C@@H](CC(=O)N3CCCCC3)CC[C@@H]21,6.3,-4.2
COC(=O)C[C@H]1C[C@@H]2c3cc(NS(=O)(=O)c4cccc(OC)c4)ccc3O[C@@H]2[C@@H](CO)O1,4.5,9.7
COc1ccc(NC(=O)N(C)C[C@H]2Oc3ncc(C#CCN(C)C)cc3C(=O)N([C@@H](C)CO)C[C@@H]2C)cc1,-0.7,1.3
CO[C@H]1CN(C)C(=O)c2ccc(NC(=O)C3CC3)cc2OC[C@H](C)N(C(=O)c2ccccn2)C[C@H]1C,3.7,2.3
C[C@H](CO)N1C[C@H](C)[C@@H](CN(C)S(=O)(=O)c2ccc(F)cc2)Oc2c(NC(=O)c3ccncc3)cccc2C1=O,13.9,10.1
C[C@H](O)C#Cc1ccc2c(c1)O[C@H](CN(C)C(=O)Nc1ccccc1)[C@H](C)CN([C@H](C)CO)S2(=O)=O,6.7,2.7
Cc1ccc(S(=O)(=O)Nc2ccc3c(c2)C(=O)N([C@@H](C)CO)C[C@H](C)[C@H](CN(C)S(C)(=O)=O)OCCCC[C@@H](C)O3)cc1,17.0,4.8
C[C@H]1CN([C@@H](C)CO)C(=O)CCCn2cc(nn2)CO[C@@H]1CN(C)CC1CCCC1,8.1,4.3
CCCC(=O)Nc1ccc2c(c1)C(=O)N(C)C[C@@H](OC)[C@H](C)CN(S(=O)(=O)c1cn(C)cn1)[C@@H](C)CO2,8.7,10.1
CCNC(=O)C[C@H]1CC[C@H]2[C@@H](COc3ccc(NC(=O)Nc4ccc(Cl)cc4)cc3C(=O)N2C)O1,-0.3,-5.7
CCCC(=O)Nc1ccc2c(c1)C(=O)N(C)C[C@H](OC)[C@@H](C)CN(CCC)[C@H](C)CO2,-10.8,-4.0
COc1ccc2c3c(n(C)c2c1)[C@@H](CO)N(CC1CC1)CC31CN(C(=O)c2ccc3c(c2)OCO3)C1,?,.
CCCN1C[C@@H](C)[C@H](OC)CN(C)C(=O)c2ccc(NS(C)(=O)=O)cc2OC[C@@H]1C,6.1,4.8
Cc1ccc(S(=O)(=O)Nc2ccc3c(c2)C(=O)N([C@@H](C)CO)C[C@H](C)[C@H](CN(C)CC2CCCCC2)OCCCC[C@H](C)O3)cc1,-15.6,-7.3
CC=Cc1ccc2n(c1=O)C[C@@H]1[C@@H](CO)[C@H](C(=O)NCC(F)(F)F)[C@H]2N1C(=O)C1CC1 (mixture of isomers),19.0,22.7
C[C@H]1CCCCO[C@H](CN(C)C(=O)Nc2ccccc2)[C@@H](C)CN([C@@H](C)CO)C(=O)c2cc(NC(=O)CCCN(C)C)ccc2O1,21.0,11.7
COc1ccc2c3c([nH]c2c1)[C@@H](CO)N(C(=O)Nc1ccc(F)cc1)CC31CCN(C(=O)c2ccccc2F)CC1,?,.
CS(=O)(=O)Nc1ccc2c(c1)[C@@H]1C[C@H](CC(=O)NCCc3ccccc3)O[C@H](CO)[C@@H]1O2,-6.1,-7.9
COc1ccc(S(=O)(=O)Nc2ccc3c(c2)CC(=O)N([C@@H](C)CO)C[C@H](C)[C@@H](CN(C)C(=O)Nc2c(C)noc2C)O3)cc1,18.5,11.8
C[C@H](NC(=O)C[C@@H]1C=C[C@H](NC(=O)CN2CCOCC2)[C@@H](CO)O1)c1ccccc1,9.2,14.9

# Looked up by structure from the entries so far, two records:
SMILES,Vaccinia stage,Vaccinia stage Venus
C[C@H](O)C#Cc1ccc2c(c1)O[C@H](CN(C)C(=O)Nc1ccccc1)[C@H](C)CN([C@H](C)CO)S2(=O)=O,6.7,2.7
Cc1ccc(S(=O)(=O)Nc2ccc3c(c2)C(=O)N([C@@H](C)CO)C[C@H](C)[C@H](CN(C)CC2CCCCC2)OCCCC[C@H](C)O3)cc1,-15.6,-7.3

# The results go on:
SMILES,Vaccinia stage,Vaccinia stage Venus
CCCNC(=O)Nc1ccc2c(c1)OC[C@H](C)NC[C@H](C)[C@H](OC)CN(C)C2=O,6.3,0.8
O=C(C1CCC1)N1CCCCN2[C@@H](CO)[C@@H](c3ccc(-c4ccncc4)cc3)[C@@H]2C1,?,.
C[C@H](CO)N1C[C@H](C)[C@H](CN(C)C(=O)NC2CCCCC2)Oc2ncc(-c3ccc(F)cc3)cc2C1=O,-3.2,-6.0
OC[C@H]1[C@H](c2ccc(-c3ccccc3F)cc2)[C@@H]2CN(Cc3ccncc3)CCCCN12,-26.6,-23.6
C[C@@H]1CN([C@H](C)CO)C(=O)c2cc(NS(=O)(=O)c3cccs3)ccc2O[C@@H](C)CCCCO[C@H]1CN(C)C(=O)C1CCCCC1,-16.2,-5.9
C[C@@H]1CN([C@H](C)CO)C(=O)c2cc(C#CCc3ccccc3)cnc2O[C@H]1CN(C)C(=O)C1CCOCC1,9.7,6.8
C[C@@H]1CN([C@H](C)CO)C(=O)c2cc(-c3ccc(C#N)cc3)cnc2O[C@@H]1CN(C)C(=O)CN(C)C,27.7,15.6
CCC(=O)Nc1ccc2c(c1)OC[C@@H](C)N(Cc1ccccc1OC)C[C@@H](C)[C@@H](OC)CN(C)C2=O,-7.6,-2.7
O=C(Nc1cccc(F)c1)N[C@@H]1CC[C@@H](CCNS(=O)(=O)c2cccc(Cl)c2)O[C@@H]1CO,-31.4,-14.2
C[C@@H]1CN([C@H](C)CO)C(=O)c2cccc(NC(=O)Nc3cccc4ccccc34)c2O[C@H]1CN(C)S(=O)(=O)c1cccs1,17.6,4.2
C[C@H](CO)N1C[C@H](C)[C@@H](CN(C)C(=O)Cc2ccncc2)Oc2cc(C3=CCCCC3)ccc2S1(=O)=O,-32.2,-18.1
C[C@@H]1CN([C@@H](C)CO)C(=O)c2cc(C#Cc3ccccn3)cnc2O[C@@H]1CN(C)C(=O)c1ccccn1,4.9,6.1
COc1cccc(S(=O)(=O)Nc2ccc3c(c2)[C@H]2C[C@H](CC(=O)NCc4ccc(Cl)cc4)O[C@@H](CO)[C@H]2O3)c1,?,.
COc1ccc(S(=O)(=O)N(C)C[C@@H]2OCCCC[C@H](C)Oc3ccc(NS(=O)(=O)c4ccccc4)cc3C(=O)N([C@@H](C)CO)C[C@@H]2C)cc1,?,.
C[C@@H]1CN([C@@H](C)CO)C(=O)c2cc(C3=CCCC3)cnc2O[C@@H]1CN(C)C(=O)c1ccncc1,14.3,8.8
COc1ccc2c3c(n(C)c2c1)[C@@H](CO)N(C(=O)c1ccncc1)CC31CCN(CC2CC2)CC1,-1.4,-1.0
COc1ccc(CN(C)C[C@H]2Oc3ccc(NC(=O)C4CCCCC4)cc3C(=O)N([C@@H](C)CO)C[C@@H]2C)cc1,-4.6,3.2
O=C(O)C1=C[C@@H](C2CCCCC2)C[C@@H](OCCCCO)O1,15.5,11.3

# These rows are one share of the data (hit frequency here may not be typical).
